Screening results: PubChem BioAssay, National Center for Advancing Translational Sciences (NCATS)
Marburg entry – Marburg virus entry inhibition; Marburg virus pseudotype entry/binding inhibition, cell-based; control for the full effect not named in the record; many of its hits are not listed in these tables; Potency, µM (doses to about 49.2 µM), for the others: at the top dose activity change, negative = inhibition, hits mostly inhibitors; 6.5% of 18,000 active; active means well fitted inhibition curve with a large enough effect; inconclusive means small, poorly fitted or top-dose-only effect; inactive means no such curve, though single readings can be large or run the other way; tested in HEK293 cells; further: luciferase read-out
Lassa entry – Lassa virus entry inhibition; Lassa virus pseudotyped entry inhibition, cell-based qHTS; control for the full effect not named in the record; many of its hits are not listed in these tables; Potency, µM (titrated, usually from 49.2 µM), inactives show at the top dose activity change, negative = inhibition, actives largely listed as inhibitors; 4.1% of 18,000 active; AID 720533; active = well fitted inhibition curve with a large enough effect; inconclusive = small, poorly fitted or top-dose-only effect; inactive = no such curve, though single readings can be large or run the other way; tested in HEK293 cells; further: luciferase read-out
* marks the source's active call; other numbers are inactive results; ? = inconclusive; / = not tested or not shown; & = joins results of further samples; [ ] = dose if it differs, or a comment. On the % scale 0 is the no-effect control and ±100 the full control effect; potency means the concentration at half of the fitted maximal effect. These rows are one share of the data. The share of hits here may be higher or lower than overall.

Fields: Marburg entry	Lassa entry
1. CC1CC(OC(=O)C(O)c2ccccc2)CC(C)(C)C1 (stereo not given)
    -7%	-21%
2. CO[C@@]1(NC(=O)Cc2cccs2)C(=O)N2C(C(=O)O)=C(COC(N)=O)CSC21 (stereo not given in full)
    1%	-8%
3. CCn1c(-c2cccc(OC)c2)nc2cc(NC(C)=O)cc(C(=O)N(C)CC3COCCO3)c21 (stereo not given)
    0%	-18%
4. COC(=O)CCC(=O)OC1(C)C(=O)C=C2C=C(C3CC3)N(Cc3ccco3)C=C2C1=O (stereo not given)
    47%[8.59 µM]	8%[8.59 µM]
5. O=C(OCc1ccccc1)c1ccc(O)cc1
    42%[activator]	6%
6. COc1cc2c(c(OC)c1OC)-c1c(cc3c(c1OC)OCO3)CC(C)C(C)C2 (stereo not given)
    -18%	?
7. CCCCC[C@]12Cc3cc(OC)c(OC)cc3[C@H](O1)c1c(cc(C)n(-c3ccccc3)c1=O)O2
    31%&-15%[8.59 µM]	23%&4%[8.59 µM]
8. NCC(=O)c1ccccc1
    0%	7%
9. CC(C)C[C@@H](CC(=O)N[C@@H](CCC(=O)O)CC(=O)O)NC(=O)[C@@H]1CCCC[C@H]1NC(=O)C[C@@H](NC(=O)C[C@H](Cc1c[nH]c2ccccc12)NC(=O)[C@@H]1CNCC[C@H]1N)C(C)C
    0%	-9%
10. Cc1ccc([C@H]2C[C@H](n3cc(-c4ccc(F)cc4)nn3)[C@@H](O)CN2C(=O)c2cccs2)cc1
    -19%	-14%
11. COC(=O)C1=C2CCO[C@@H]2[C@H]2[C@@H](C)[C@H](OC)c3ccccc3[C@H]12
    0%[8.59 µM]	-24%[8.59 µM]
12. Cc1ccc(C2CC(=O)Oc3ccc(C(C)(C)C)cc32)cc1 (stereo not given)
    7%	-3%
13. COc1ccc([C@]23Cc4c(ccc5ccccc45)[C@H](O2)c2c(cc(-c4ccccc4)oc2=O)O3)cc1
    40%[8.59 µM]	25%[8.59 µM]
14. COC(=O)C(C(=O)OC)[C@@H](NC=O)c1ccccc1
    -11%	3%
15. COc1cccc([C@H]2Oc3ccc(OC)cc3C(=NOC[C@@H](C)[C@H](OCc3ccccc3)C(C)C)[C@H]2O)c1
    10%[8.59 µM]	11%[8.59 µM]
16. C[C@H]1CN(Cc2ccccc2)C(=O)[C@H]1CC(=O)Nc1ccccc1
    6%	30%
17. OB(O)O
    5%	-8%
18. CCCCCCCCCCCCCCCCCC(=O)[O][Al]
    13%	0%
19. C/C(=C\CO)CCO
    -15%	-1%
20. CC1(C)S[C@@H]2[C@H](N3C(=O)C(c4ccccc4)NC3(C)C)C(=O)N2[C@H]1C(=O)O (stereo not given in full)
    -3%	-8%
21. C#CCN(CC(=O)OCC)S(=O)(=O)CCNC1CC1
    24%	14%
22. CCN1C(=O)N[C@@H](c2ccccc2)[C@H](C(=O)OC)[C@H]1C
    -12%[8.59 µM]	5%[8.59 µM]
23. O=S(=O)(NCCc1ccc(F)cc1)c1ccccc1Br
    17%	-12%
24. COc1ccc2c(c1)C(=O)[C@H](OC(=O)NCc1ccco1)[C@@H](c1ccc(OC)c(Br)c1)O2
    1%	-1%
25. NCCCC[C@H](N)C(=O)N[C@@H](CCCN=C(N)N)C(=O)N1CCC[C@H]1C(=O)N1CCC[C@H]1C(=O)NCC(=O)N[C@@H](Cc1ccccc1)C(=O)N[C@@H](CO)C(=O)N1CCC[C@H]1C(=O)N[C@@H](Cc1ccccc1)C(=O)O
    -3%	-5%
26. Cn1nnnc1SCC1=C(C(=O)O)N2C(=O)C(NC(=O)C(O)c3ccccc3)C2SC1 (stereo not given)
    3%	8%
27. CC[C@H](C)[C@H](NC(=O)CNC(=O)[C@H](CCCNC(=N)N)NC(=O)CNC(=O)[C@@H](NC(=O)[C@H](Cc1ccc(O)cc1)NC(=O)[C@H](Cc1c[nH]c2ccccc12)NC(=O)[C@H](C)NC(=O)[C@@H]1CCCN1C(=O)[C@H](CC(N)=O)NC(=O)[C@@H](NC(=O)[C@H](CC(=O)O)NC(=O)[C@@H]1CCCN1C(=O)[C@@H](N)[C@@H](C)O)[C@@H](C)CC)[C@@H](C)O)C(=O)N[C@@H](CCCNC(=N)N)C(=O)N1CCC[C@H]1C(=O)N[C@H](C(=O)NCC(=O)N[C@@H](CCCNC(=N)N)C(=O)N[C@@H](Cc1ccccc1)C(N)=O)C(C)C
    11%	-5%
28. COc1cccc(NC(=O)OCCN2CCN(Cc3ccccc3)CCC2=O)c1
    33%&-10%[activator]	-15%&-14%
29. COc1ccc(-c2nc(-c3ccccc3)c(NC(C)(C)C)o2)cc1
    1%	-3%
30. COC(=O)N[C@@H](c1ccccc1)C(C(=O)OC)C(=O)OC
    45%[activator][8.59 µM]	-9%[8.59 µM]

Gathered by group: those above containing bromine.
Fields: Marburg entry	Lassa entry
23. O=S(=O)(NCCc1ccc(F)cc1)c1ccccc1Br
    17%	-12%
24. COc1ccc2c(c1)C(=O)[C@H](OC(=O)NCc1ccco1)[C@@H](c1ccc(OC)c(Br)c1)O2
    1%	-1%

In the list so far, these have a tert-butyl group:
Fields: Marburg entry	Lassa entry
12. Cc1ccc(C2CC(=O)Oc3ccc(C(C)(C)C)cc32)cc1 (stereo not given)
    7%	-3%
29. COc1ccc(-c2nc(-c3ccccc3)c(NC(C)(C)C)o2)cc1
    1%	-3%

(next part)
Fields: Marburg entry	Lassa entry
31. O=C1CC2(CCCC2)CC(=O)N1CCCCNCC1COc2ccccc2O1 (stereo not given)
    ?	?
32. COc1cccc(CNC(=O)c2c(OC)cc(=O)n3c2CCN(C(=O)c2cc(C)ccc2C)CC3)c1
    -6%	-6%
33. Cc1cc(=O)oc2cc(OCc3cn(CC(=O)c4ccc(O)cc4)nn3)ccc12
    22%	12%
34. C#CCN1C(=O)[C@]2(O[C@H](COc3ccccc3)CC3=C2CCC3)c2ccccc21
    -41%[8.59 µM]	/
35. CCCN1C[C@H](CSC)C[C@H]2c3cccc4[nH]cc(c34)C[C@@H]21
    ?	-15%[17.8 µM]
36. C/C=C/C1=Cc2ccccc2C(C(C(=O)OC)C(=O)OC)N1C(=O)OC (stereo not given)
    9%	-9%
37. CC1C(=O)N(Cc2cn(Cc3ccco3)nn2)CCS(=O)(=O)N1Cc1ccc(-c2cccc(N(C)C)c2)cc1 (stereo not given)
    24%	-18%
38. CC1(C)S[C@@H]2[C@H](NC(=O)[C@H](NC(=O)N3CCN(S(C)(=O)=O)C3=O)c3ccccc3)C(=O)N2[C@H]1C(=O)O
    -1%	-17%
39. COc1cc(=O)n2c(c1C(=O)NC(C)c1ccco1)CCN(Cc1cc(C)cc(C)c1)CC2 (stereo not given)
    -6%	-12%
40. COc1ccc([C@H]2C[C@@H](O)[C@H](n3cc(COC(=O)c4ccccc4)nn3)CN2C(=O)c2cccs2)cc1
    21%	/
41. COc1ccc([C@]23Cc4ccccc4[C@H](O2)C2=C(CC4(CCCCC4)OC2=O)O3)cc1
    50%[activator][8.59 µM]	44%[activator][8.59 µM]
42. CCCCCC(=O)N1C[C@@H](n2cc(-c3ccc(F)cc3)nn2)[C@H](O)C[C@H]1c1ccccc1
    ?	-15%
43. CN(C)CC[C@@H](c1ccccc1)c1ccccn1
    -2%[17.8 µM]	-13%[17.8 µM]
44. CC(C)[C@H]1C(=O)N2CCC[C@H]2[C@]2(O)O[C@](NC(=O)[C@@H]3C[C@@H]4c5cccc6[nH]cc(c56)C[C@H]4N(C)C3)(C(C)C)C(=O)N12
    7.1µM*	-19%
45. Cc1ccc2occ(CN3CCOc4ccc(C(C)(O)COc5ccccc5)cc4C3)c(=O)c2c1 (stereo not given)
    -35%	?
46. O=C1NCN(c2ccccc2)C12CCN(CC1COc3ccccc3O1)CC2 (stereo not given)
    -1%&4%	2%&-8%
47. O=C(NCc1nnc2n1CCN(Cc1cc3c(cc1Cl)OCO3)CC2)c1cccc(F)c1
    6%	20%
48. C[C@@]12CCC3C(CC[C@@H]4CC(O)CC[C@@]34C)C1CCC2O (stereo not given in full)
    4%	2%
49. CC(=O)c1ccc(-c2cc(F)cc3c2OC(CNC(=O)C(C)N2CCOCC2)C3)s1 (stereo not given)
    11%	-22%
50. COc1ccc(C(=O)/C=C/c2ccccc2)cc1
    18%	46%[activator]
51. COC(=O)c1cc(CNC(=O)c2ccccc2F)cc(NC(=O)c2ccccc2OC)c1
    3%	?
52. N[C@@H](CCCCNC(=O)CCCC[C@@H]1SC[C@H]2NC(=O)N[C@H]12)C(=O)O
    5%	-3%
53. O=S1(=O)CC(N2CCCCC2)CN1Cc1ccccc1 (stereo not given)
    26%	31%
54. Cc1cc2oc(=O)cc(-c3ccccc3)c2c(C)c1-c1ccc(F)c(Cl)c1
    30%	1%
55. COC(=O)[C@]12CCC(C)(C)C[C@H]1[C@H]1C(=O)C=C3[C@@]4(C)C=C(C#N)C(=O)C(C)(C)[C@@H]4CC[C@@]3(C)[C@]1(C)CC2
    3.2µM*	3.5µM*
56. CC1(C)C(=O)[C@@H]2OC2[C@@]2(C)C1CC(O)[C@]1(C)C2CC[C@@]2(C)C(c3ccoc3)OC(=O)C3OC312 (stereo not given in full)
    -26%	-9%
57. C=C[C@H]1C[C@H]2C=C(C)COP(=O)(O2)O1
    -5%	39%[activator]
58. O=C1c2ccccc2C(=O)N1CCCC[C@]12Cc3ccccc3[C@H](O1)c1c(c3ccccc3oc1=O)O2
    -29%[8.59 µM]	-5%[8.59 µM]
59. Cc1cccc(C)c1NC(=O)c1ccccc1C(=O)O
    -4%	-11%
60. O=c1c(O)c(-c2ccc(O)cc2)oc2cc(O)cc(O)c12
    27%	48%[activator]

A draw from above in order of number of heavy atoms, ascending.
Fields: Marburg entry	Lassa entry
35. CCCN1C[C@H](CSC)C[C@H]2c3cccc4[nH]cc(c34)C[C@@H]21
    ?	-15%[17.8 µM]
52. N[C@@H](CCCCNC(=O)CCCC[C@@H]1SC[C@H]2NC(=O)N[C@H]12)C(=O)O
    5%	-3%
34. C#CCN1C(=O)[C@]2(O[C@H](COc3ccccc3)CC3=C2CCC3)c2ccccc21
    -41%[8.59 µM]	/

Next section:
Fields: Marburg entry	Lassa entry
61. CCCCCCCC1=Cc2ccccc2C(C(C(=O)OC)C(=O)OC)N1C(=O)OC (stereo not given)
    -2%[8.59 µM]	-15%[8.59 µM]
62. CCCCc1nc2c(c3c1C[C@H](C)OC3)CN(S(=O)(=O)c1ccccc1C(=O)OC)CC2
    22%[8.59 µM]	-3%[8.59 µM]
63. COc1ccc(/C=C/C(=O)OCCC(C)C)cc1
    18%	18%
64. OCCN1CCN(Cc2ccc3c(c2)CN(Cc2ccc4ccccc4c2)CCO3)CC1
    ?	0%
65. Cc1cnc(-n2ncc(C(=O)NCCc3ccccn3)c2C)nc1-c1ccc(F)cc1
    6%	-15%
66. CN1CC[C@@H]2CN3CCc4cccc(c43)[C@@H]2C1
    3%	-1%
67. CCN(CC)CCc1c[nH]c2ccccc12
    -21%[107 µM]	-18%[107 µM]
68. N[C@@H](Cn1ccc(=O)n(Cc2ccc(C(=O)O)cc2)c1=O)C(=O)O
    4%	-11%
69. OCCOCCN1CCN(Cc2cccc(Oc3ccccc3)c2)CC1
    -28%	0%
70. CC(C)NCC(O)COc1ccccc1-n1cccc1 (stereo not given)
    ?	4%
71. Cc1nc2cc(NC(=O)[C@@H]3C[C@@H](Sc4ccccn4)CN3Cc3ccccc3F)ccc2s1
    5%	-14%
72. Cc1cnc(-n2ncc(C(=O)NCCc3ccncc3)c2-c2cccs2)nc1-c1ccc(F)cc1
    1%	-13%
73. COc1cc2oc(=O)cc(CN3CCCCC3)c2cc1Cl
    49%[activator]	8%
74. COc1cc(CN2CCc3nnc(C(NS(C)(=O)=O)C(C)C)n3CC2)ccc1F (stereo not given)
    11%	-6%
75. C[C@H]1Cc2c(COc3ccccc3)nc3c(c2CO1)CN(C(=O)C1CC1)CC3
    ?	7%[8.59 µM]
76. CN(C(=O)c1cnn(-c2nccc(-c3ccccc3C(F)(F)F)n2)c1C1CC1)C1CCOC1 (stereo not given)
    24%	3%
77. O=C(O)c1ccc(NC(=O)[C@H](Cc2ccc(O)cc2)NC(=O)c2ccccc2)cc1
    17%&15%	-1%&-3%
78. Cc1cc(NC(=O)C2=C(O)c3ccccc3S(=O)(=O)N2C)no1
    6%	-4%
79. COc1ccccc1-c1ccc(C(=O)N(C)CC2COCCO2)c(N2CCN(c3ccccc3F)CC2)n1 (stereo not given)
    1%	?
80. COc1ccccc1N1CCN(CCCCNC(=O)c2ccc3ccccc3c2)CC1
    -27%[17.8 µM]	4%[17.8 µM]
81. Cc1ccccc1N1CCN(S(=O)(=O)CC23CCC(CC2NC(=O)C(N)CCS(C)(=O)=O)C3(C)C)CC1 (stereo not given)
    ?	-12%
82. O=c1cc(-c2cccc(O)c2)oc2c(O)c(O)ccc12
    -6%	-17%
83. CC[C@@]1([C@@H]2O[C@@H]([C@H]3O[C@@](O)(CO)[C@H](C)C[C@@H]3C)C[C@@H]2C)CC[C@@H]([C@]2(C)CCC3(C[C@H](O)[C@@H](C)[C@@H]([C@@H](C)[C@@H](OC)[C@H](C)C(=O)O)O3)O2)O1 (stereo not given in full)
    0.32µM*	0.56µM*
84. O=C(N/N=C/c1ccccc1O)c1ccncc1
    -24%	10µM*
85. CSCC[C@H](NC(=O)[C@H](CC(C)C)N1CCC(NC(=O)[C@@H](NC(=O)[C@H](Cc2ccccc2)NC(=O)[C@H](CO)NC(=O)[C@H](CC(=O)O)NC(=O)[C@@H](N)CCCCN)C(C)C)C1=O)C(N)=O (stereo not given in full)
    -15%	-15%
86. COc1cc2c(cc1OC)[C@@H]1O[C@](CCCCN3C(=O)c4ccccc4C3=O)(C2)OC2=C1C(=O)OC1(CCCCC1)C2
    28%[8.59 µM]	-13%[8.59 µM]

Looked up above.
#24 in Marburg entry is entered as 1%
#16 in Marburg entry is entered as 6%
